# CFTR F508del: total CFTR protein upregulators, primary screen, cell-based, HeLa F508del-CFTR, immunofluorescence, viability (AID 1224863) | HeLa F508del-CFTR, immunofluorescence total CFTR, 24 h; by the record results were divided by relative cell number; some inactives read as strong as hits | calls, or highest fold increase where a dose series was run | hit rate 0.1% among 10,000; in the data nearly all actives have a first-pass fold increase above 1.5; a few of its hits are not listed in these tables;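 also: total CFTR protein by anti-CFTR immunofluorescence in fixed cells; first pass at 25 µM or 10 µg/mL by library and series up to twice that; 1 = untreated cells; first-pass hits also needed half or more of the cells alive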
# CFTR F508del fold 25 µM: second read-out of CFTR F508del, no call of its own (marks repeat the call); fold increase; measured here: primary screen single dose 25 uM; library dosed in µM
# CFTR F508del fold 10 ug/mL: second read-out of CFTR F508del, no call of its own (marks repeat the call); fold increase; measured here: primary screen 10 ug/mL
# CFTR F508del viability 25 µM: second read-out of CFTR F508del, no call of its own (marks repeat the call); viability, %; measured here: primary viability 25 uM; library dosed in µM;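 0% = killed and 100% = untreated cells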
# CFTR F508del viability 10 ug/mL: also measured in CFTR F508del; calls as there; viability, %; measured here: primary viability 10 ug/mL;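 0% = killed and 100% = untreated cells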
# Numbers without * were called inactive; i = inactive; · = no result given; & = joins results of further samples. The list is partial; the hit share may differ from the screen's.
SMILES,CFTR F508del,CFTR F508del fold 10 ug/mL,CFTR F508del viability 10 ug/mL,others
O=C1CCC(Sc2nnc(-c3ccccc3Cl)n2C2CCCC2)C1 (centres undefined),i,0.93,76,
COc1cc(NC(C)CCCN)c2ncccc2c1 (centres undefined),i,·,·,CFTR F508del fold 25 µM=2.3&1.1;CFTR F508del viability 25 µM=3&84
COCCCN(S(=O)(=O)c1cccc(Cl)c1)S(=O)(=O)c1ccc(Cl)c(Cl)c1,i,0.96,95,
CN(C)S(=O)(=O)NCC1(N2CCOCC2)CCCCC1,i,0.91,99,
CCS(=O)(=O)CC(=O)O,i,1.2,97,
CCn1nnnc1SCc1nc(N)c2c3c(sc2n1)CCCCC3,i,1.1,84,
O=C(N1CCOCC1)N1CCN(c2cn[nH]c(=O)c2Cl)CC1,i,0.99,102,
CN(C)c1ccc(O)c2c1C[C@H]1C[C@H]3[C@H](N(C)C)C(=O)C(C(N)=O)=C(O)[C@@]3(O)C(=O)C1=C2O,i,·,·,CFTR F508del fold 25 µM=0.9&0.85;CFTR F508del viability 25 µM=74&110
O=S(=O)(CCNS(=O)(=O)c1c(Cl)cc(Br)cc1Cl)NC1CC1,i,0.89,94,
CCn1c(C)cc(C(=O)CSc2n[nH]c(=O)n2C2CC2)c1C,i,0.98,99,
Cc1cc(=O)c(C(=O)OCn2nnc3ccccc3c2=O)nn1-c1cccc(C(F)(F)F)c1,i,0.87,87,
Cc1ccc(C(=O)c2cc(O)c(O)c([N+](=O)[O-])c2)cc1,i,·,·,CFTR F508del fold 25 µM=1;CFTR F508del viability 25 µM=84
Cc1c(Cl)cc(S(=O)(=O)N2CC(C)OC(C)C2)cc1[N+](=O)[O-] (centres undefined),i,0.96,92,
COC(=O)c1cnn(C)c1,i,1,105,
O=c1c2c3c(sc2nc(SCCO)n1CC1CCCO1)CCCC3 (centres undefined),i,0.87,86,
Nc1nccnc1C(=O)N1CCN(S(=O)(=O)N2CCCC2)CC1,i,1,103,
CN(C)CCCN1C(=O)C(=O)/C(=C(/O)c2ccc(F)cc2)C1c1cccnc1 (centres undefined),i,0.9,90,
Cn1ccnc1C(NS(=O)(=O)c1cc(F)ccc1F)c1ccccc1F (centres undefined),i,1,94,
CC1CC(C)(C)CC2(C1)NC(=O)N(CN1CCN(Cc3ccncc3)CC1)C2=O (centres undefined),i,0.9,103,
CC1=C(C)C(=O)C(CCCCC#CCCCC#CCO)=C(C)C1=O,i,·,·,CFTR F508del fold 25 µM=0.87;CFTR F508del viability 25 µM=87
COC(=O)c1ccoc1COC(=O)c1cc2c(s1)CCCCC2,i,0.93,86,
CC1CN(c2c(F)c(N)c3c(=O)c(C(=O)O)cn(C4CC4)c3c2F)C[C@H](C)N1 (some centres undefined),i,·,·,CFTR F508del fold 25 µM=1.1;CFTR F508del viability 25 µM=79
CCN(CC)CCNCC(=O)O,i,1.1,88,
CCn1c(=O)c2ccccc2n2c(COc3ccc4oc5ccccc5c4c3)nnc12,i,1.1,100,
CC(C)CN(Cn1c(=S)n(C)c2ccccc21)C1CCS(=O)(=O)C1 (centres undefined),i,1.1,94,
CN(CC(N)=O)Cc1ccc(Br)s1,i,0.99,102,
O=C(O)c1cn(C2CC2)c2cc(N3CCNCC3)c(F)cc2c1=O,i,·,·,CFTR F508del fold 25 µM=0.67&1;CFTR F508del viability 25 µM=42&94
Cc1ccc(Nc2nnc(SC3CC(C)OC3=O)s2)c(C)c1 (centres undefined),i,0.98,91,
CO[C@H]1C[C@H](O[C@H]2[C@H](C)[C@@H](O[C@@H]3O[C@H](C)C[C@H](N(C)C)[C@H]3OC(C)=O)[C@@H](C)C[C@@]3(CO3)C(=O)[C@H](C)[C@@H](OC(C)=O)[C@@H](C)[C@@H](C)OC(=O)[C@@H]2C)O[C@@H](C)[C@@H]1OC(C)=O,i,·,·,CFTR F508del fold 25 µM=0.97;CFTR F508del viability 25 µM=104
CC1(c2ccc(OC(F)F)cc2)NC(=O)N(Cc2cc3c(cc2Br)OCO3)C1=O (centres undefined),i,0.89,81,
COC(=O)C1=C(C)NC(=O)NC1c1ccc2cc(OC)ccc2c1 (centres undefined),i,0.99,108,
CCC(CC)N(C1CC1)S(=O)(=O)c1ccc2c(c1)CCO2,i,0.91,78,
CCc1c(C(=O)OCC(=O)c2cc(C)n(CCCOC)c2C)cnc2ncnn12,i,0.86,85,
Cc1cc(C(=O)COC(=O)c2cc(Cl)c3c(c2)OCO3)c(C)n1C1CC1,i,1.1,90,
CO[C@H]1/C=C/O[C@@]2(C)Oc3c(C)c(O)c4c(O)c(c5c(nc6cc(C)ccn65)c4c3C2=O)NC(=O)/C(C)=C\C=C\[C@H](C)[C@H](O)[C@@H](C)C(O)[C@@H](C)[C@H](OC(C)=O)[C@@H]1C (some centres undefined),i,·,·,CFTR F508del fold 25 µM=1;CFTR F508del viability 25 µM=89
CCN(CC)S(=O)(=O)N1CCN(CC(=O)Nc2cc(C)on2)CC1,i,1.1,93,
CCn1c(SCC(=O)NC2(C#N)CCCCC2)nnc1N1CCOCC1,i,0.93,93,
CC(C)Oc1ccc(NC(=O)C2(C)CC2(Cl)Cl)cc1 (centres undefined),i,0.95,93,
CCCCS(=O)(=O)Nc1ccc(F)c(N)c1,i,0.96,102,
Cc1nc2nc(SCc3cc(Cl)cc4c3OCOC4)nn2c(C)c1C,i,0.98,91,
Fc1ccc(F)c(-c2csc(N3CCOCC3)n2)c1,i,0.98,92,
O=[N+]([O-])c1cnc(N(Cc2ccco2)C2CC2)nc1NC1CC1,i,0.9,88,
CSc1nc2cc(Oc3cccc(Cl)c3Cl)c(Cl)cc2[nH]1,i,·,·,CFTR F508del fold 25 µM=1;CFTR F508del viability 25 µM=90
Cc1cc(C)c(S(=O)(=O)N2CCN(Cn3nc4nc(C)cc(C)n4c3=S)CC2)c(C)c1,i,0.98,108,
CCOc1ccccc1OCCN[C@H](C)Cc1ccc(OC)c(S(N)(=O)=O)c1,i,·,·,CFTR F508del fold 25 µM=1.1;CFTR F508del viability 25 µM=93
Cn1c(=O)oc2cc(S(=O)(=O)NC3COc4ccccc4C3)ccc21 (centres undefined),i,0.99,88,
CCCCn1c(N)c(N(CC(C)C)C(=O)CC2C=CCC2)c(=O)[nH]c1=O (centres undefined),i,0.91,76,
O=S(=O)(NCC12CC3CC(CC(C3)C1)C2)c1cc(Cl)sc1Cl,i,1.2,87,
CCc1ccc(C(=O)NCCN2CCOCC2)o1,i,0.96,87,
COC1CC2CCC(C)C(O)(O2)C(=O)C(=O)N2CCCCC2C(=O)OC(C(C)CC2CCC(O)C(OC)C2)CC(=O)C(C)/C=C(\C)C(O)C(OC)C(=O)C(C)CC(C)/C=C/C=C/C=C/1C (centres undefined),i,·,·,CFTR F508del fold 25 µM=0.81;CFTR F508del viability 25 µM=80
Cc1ccc(C(C)NC(=O)CSc2cccs2)o1 (centres undefined),i,1,95,
CCOc1ccc(CN(C)Cn2nc3c(Cl)cc(Cl)cn3c2=S)cc1,i,1.1,96,
CC(=O)OCC(=O)[C@@]12N=C(C)O[C@@H]1C[C@H]1[C@@H]3CCC4=CC(=O)C=C[C@]4(C)[C@H]3[C@@H](O)C[C@@]12C,i,·,·,CFTR F508del fold 25 µM=1.1;CFTR F508del viability 25 µM=90
CC(NS(=O)(=O)c1ccc2c(c1)CCC(=O)N2)c1ccc2c(c1)OCO2 (centres undefined),i,1.4,96,
O=[N+]([O-])c1ccc(NC2CCN3CCCCC23)c(S(=O)(=O)N2CCCC2)c1 (centres undefined),i,1.1,97,
CN1CCN(c2nc(-c3ccc(F)cc3)cs2)CC1,i,1.1,96,
N#Cc1c(NC(=O)CNc2ccc(I)cc2)sc2c1CCC2,i,1,95,
COc1cc(O)cc(C(=O)c2ccccc2)c1S(=O)(=O)O,i,·,·,CFTR F508del fold 25 µM=1;CFTR F508del viability 25 µM=80
CC(C#N)Sc1n[nH]c(C2CCCC2)n1 (centres undefined),i,1.2,84,
CN1C2CCCC1CC(NC(=O)c1nn(C)c3ccccc13)C2 (centres undefined),i,·,·,CFTR F508del fold 25 µM=0.95&1.1;CFTR F508del viability 25 µM=73&95
# Continued:
SMILES,CFTR F508del,CFTR F508del fold 10 ug/mL,CFTR F508del viability 10 ug/mL,others
O=C1COc2cc(C(=O)OCc3nc4ccccc4n3C(F)F)ccc2N1,i,1.1,96,
CC1(C(=O)NCc2cn3ccccc3n2)CC1(Cl)Cl (centres undefined),i,1,86,
CC(Sc1nnc(COc2ccc(F)cc2)o1)C(=O)N1CCNC1=O (centres undefined),i,1.1,104,
O=C1c2ccccc2C(=O)N1CN1CCN(C2CCCC2)CC1,i,0.97,95,
Cc1cc(NCC(Cc2ccccc2)N(C)C)n2ncnc2n1 (centres undefined),i,0.88,83,
CCc1noc(C)c1C(=O)OC(C(=O)NC(N)=O)C(C)C (centres undefined),i,1,85,
O=C(Cc1ccsc1)Nc1nc2c(s1)CCCC2,i,1.1,90,
COc1ccc(C2CCCN2Cn2ncn(-c3ccccc3)c2=S)c(OC)c1 (centres undefined),i,1,105,
Nc1nc(CSc2nnnn2-c2ccccc2)nc2ccccc12,i,1.1,96,
O=C1c2ccccc2C(=O)N1COC(=O)C1(c2ccccc2F)CCCC1,i,1.1,90,
CC1CCN(S(=O)(=O)c2ccc3oc(=O)ccc3c2)c2cc(C(F)(F)F)ccc2S1 (centres undefined),i,0.97,87,
Nc1ccc(S(=O)(=O)Nc2ccnn2-c2ccccc2)cc1,i,·,·,CFTR F508del fold 25 µM=0.96;CFTR F508del viability 25 µM=96
CC(NS(=O)(=O)c1ccc(S(=O)(=O)N(C)C)cc1)C1CC2CCC1C2 (centres undefined),i,1,94,
CN(Cc1c(O)ccc2cc(Br)ccc12)C1CCCC1,i,0.84,78,
O=C(NCC1CC1)C1CCCC1,i,0.97,90,
CC(=O)N=c1sc(S(N)(=O)=O)nn1C,i,·,·,CFTR F508del fold 25 µM=1.2;CFTR F508del viability 25 µM=96
CC(C)N(CCNc1c(C#N)c(=O)n(C)c(=O)n1C)C(C)C,i,1,104,
O=C(Cn1cnc2sccc2c1=O)C12CC3CC(CC(C3)C1)C2,i,0.89,65,
COC(=O)c1c(C)[nH]c(C(=O)OCC(=O)c2cccn2C)c1C,i,0.89,80,
Cc1noc(COC(=O)c2sc3cc(Cl)ccc3c2Cl)n1,i,0.97,97,
COC(=O)C1(NC(=O)COc2cc(C)on2)CCCCC1,i,1.1,90,
C=C(C)COC(=O)c1[nH]c(C)c(C(=O)OC)c1C,i,0.9,87,
COC(=O)[C@H](c1ccccc1Cl)N1CCc2sccc2C1,i,·,·,CFTR F508del fold 25 µM=1.1&0.9&1;CFTR F508del viability 25 µM=89&79&89
C=CCn1c(SCC(=O)N(CC)C2CCS(=O)(=O)C2)nc2sc(CC)cc2c1=O (centres undefined),i,1,112,
O=C(Cn1c(=O)oc2ccccc21)N1CCN(C(=O)C2COc3ccccc3O2)CC1 (centres undefined),i,0.99,96,
CCC(C)C(N)c1nc2ccccc2[nH]1 (centres undefined),i,0.94,78,
CSCCC(NC(=O)C1CC1)C(=O)NCCCn1nc(C)cc1C (centres undefined),i,1,98,
O=C1NC2(CCCC2)C(=O)N1CCCC(=O)N1CCCC1c1nc2ccccc2s1 (centres undefined),i,0.94,102,

# Compounds above that contain fluorine:
SMILES,CFTR F508del,CFTR F508del fold 10 ug/mL,CFTR F508del viability 10 ug/mL,others
Cc1cc(=O)c(C(=O)OCn2nnc3ccccc3c2=O)nn1-c1cccc(C(F)(F)F)c1,i,0.87,87,
CN(C)CCCN1C(=O)C(=O)/C(=C(/O)c2ccc(F)cc2)C1c1cccnc1 (centres undefined),i,0.9,90,
Cn1ccnc1C(NS(=O)(=O)c1cc(F)ccc1F)c1ccccc1F (centres undefined),i,1,94,
CC1CN(c2c(F)c(N)c3c(=O)c(C(=O)O)cn(C4CC4)c3c2F)C[C@H](C)N1 (some centres undefined),i,·,·,CFTR F508del fold 25 µM=1.1;CFTR F508del viability 25 µM=79
O=C(O)c1cn(C2CC2)c2cc(N3CCNCC3)c(F)cc2c1=O,i,·,·,CFTR F508del fold 25 µM=0.67&1;CFTR F508del viability 25 µM=42&94
CC1(c2ccc(OC(F)F)cc2)NC(=O)N(Cc2cc3c(cc2Br)OCO3)C1=O (centres undefined),i,0.89,81,
CCCCS(=O)(=O)Nc1ccc(F)c(N)c1,i,0.96,102,
Fc1ccc(F)c(-c2csc(N3CCOCC3)n2)c1,i,0.98,92,
CN1CCN(c2nc(-c3ccc(F)cc3)cs2)CC1,i,1.1,96,
O=C1COc2cc(C(=O)OCc3nc4ccccc4n3C(F)F)ccc2N1,i,1.1,96,
CC(Sc1nnc(COc2ccc(F)cc2)o1)C(=O)N1CCNC1=O (centres undefined),i,1.1,104,
O=C1c2ccccc2C(=O)N1COC(=O)C1(c2ccccc2F)CCCC1,i,1.1,90,
CC1CCN(S(=O)(=O)c2ccc3oc(=O)ccc3c2)c2cc(C(F)(F)F)ccc2S1 (centres undefined),i,0.97,87,

# Ordered by molecular weight (lowest first): 3 of the compounds above.
SMILES,CFTR F508del,CFTR F508del fold 10 ug/mL,CFTR F508del viability 10 ug/mL,others
CCc1noc(C)c1C(=O)OC(C(=O)NC(N)=O)C(C)C (centres undefined),i,1,85,
CSCCC(NC(=O)C1CC1)C(=O)NCCCn1nc(C)cc1C (centres undefined),i,1,98,
CC(NS(=O)(=O)c1ccc2c(c1)CCC(=O)N2)c1ccc2c(c1)OCO2 (centres undefined),i,1.4,96,

# Source: PubChem BioAssay
